# gsp antag = gsp mutant antagonism | gsp-mutant cells, cAMP HTRF, 30 min; control for the full effect not named in the record | Potency, µM (highest dose often 76.9 µM), without a hit: at the top dose activity change, negative = inhibition, actives largely listed as inhibitors | 0.4% of 340,000 active | AID 624288; active = falling curve of any shape with a large fitted effect; inconclusive = falling curve, mostly with a smaller effect; inactive = flat or rising curve; cell line not stated here;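 note: intracellular cAMP measured with PDE inhibitor Ro 20-1724 present during compound exposure; potency is the fitted concentration of half-maximal effect; % is set by controls: 0 for no effect and ±100 for the full control effect; nearly all actives have a fitted effect of over 65% in size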
#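 Cells, 2000/well, grown 16–24 h in DMEM 10% FBS with 0.5 mg/ml G418, then compounds plus […] (300 uM addition stock), 30 min at 37C. cAMP read by HTRF (cAMP-d2 and anti-cAMP antibody-K in lysis buffer) after 30 min RT.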
# Sfp PPTase inh = blocks B. subtilis Sfp PPTase activity; Biochemical Sfp PPTase activity, qHTS; Potency, µM, for the others: max response, negative = inhibition, usual class: inhibitors; 3.5% of 310,000 active; active = well fitted inhibition curve with a large enough effect; inconclusive = small, poorly fitted or top-dose-only effect, or another doubt; inactive = no such curve, though single readings can be large or run the other way;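 note: the enzyme is Sfp with the accession as filed and its product quenches rhodamine fluorescence; potency is the fitted concentration of half-maximal effect; 0% = enzyme reaction without inhibitor and -100% = no enzyme wells; top concentration of the series not given in the record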
#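 Compounds were incubated with enzyme (final 15 nM) for 15 min at room temperature before substrate addition started the reaction. Fluorescence at 525 nm excitation, 598 nm emission was recorded immediately and after 30 minutes.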
# gsp agonist = activates gsp, the McCune-Albright syndrome mutation | gsp mutant cells, cAMP HTRF, 30 min; control for the full effect not named in the record | Potency, µM (highest dose often 76.9 µM), for inactives: at the highest dose activation (cAMP increase), actives largely listed as activators | 0.13% of 340,000 active; active = well fitted activation curve with a large enough effect; inconclusive = small, poorly fitted or top-dose-only effect, or another doubt; inactive = no such curve, though single readings can be large or run the other way; cell line not stated here;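 note: phosphodiesterase inhibitor Ro 20-1724 added with compounds to block cAMP breakdown; potency is the fitted concentration of half-maximal effect; nearly all actives have a fitted effect of over 60% in size; about a fifth of the inactives were tested at one dose only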
#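 Cells stably selected in G418 were plated at 2000/well, grown 16-24 hr, then given compounds in DMSO with the PDE inhibitor […] (300 uM solution added) for 30 min at 37C; cAMP was read by HTRF.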
# Menin-MLL FL inh = displaces fluorescein MLL peptide from human menin. Fluorescence polarization, fluorescein-MLL peptide displacement from menin. FP activity change, % at 61.4 µM. 290,000 tested, under 10 active. AID 1766; inconclusive = falling polarisation curve, or a change in total fluorescence; inactive = total fluorescence flat and polarisation flat or rising; no compound was filed as active; the % refers to the polarisation; negative = inhibition;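 note: % of control where 0% means no effect; inhibitors lower the polarisation; unlabelled MLL peptide was the positive control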
# TRPV1 PAM = human TRPV1 potentiation. Q8NER1. TRPV1-expressing cells, Fluo-8 calcium influx, capsaicin EC20 potentiation; host cell line not named in the record; control for the full effect not named in the record. potentiation, % at 8.33 µM. 0.02% of 320,000 active. AID 540277; active means potentiation above 80%; inconclusive means 30% to 80%; inactive means below 30%; note: 0% is about no effect
# Target sequence (Q8NER1 whole entry, looked up): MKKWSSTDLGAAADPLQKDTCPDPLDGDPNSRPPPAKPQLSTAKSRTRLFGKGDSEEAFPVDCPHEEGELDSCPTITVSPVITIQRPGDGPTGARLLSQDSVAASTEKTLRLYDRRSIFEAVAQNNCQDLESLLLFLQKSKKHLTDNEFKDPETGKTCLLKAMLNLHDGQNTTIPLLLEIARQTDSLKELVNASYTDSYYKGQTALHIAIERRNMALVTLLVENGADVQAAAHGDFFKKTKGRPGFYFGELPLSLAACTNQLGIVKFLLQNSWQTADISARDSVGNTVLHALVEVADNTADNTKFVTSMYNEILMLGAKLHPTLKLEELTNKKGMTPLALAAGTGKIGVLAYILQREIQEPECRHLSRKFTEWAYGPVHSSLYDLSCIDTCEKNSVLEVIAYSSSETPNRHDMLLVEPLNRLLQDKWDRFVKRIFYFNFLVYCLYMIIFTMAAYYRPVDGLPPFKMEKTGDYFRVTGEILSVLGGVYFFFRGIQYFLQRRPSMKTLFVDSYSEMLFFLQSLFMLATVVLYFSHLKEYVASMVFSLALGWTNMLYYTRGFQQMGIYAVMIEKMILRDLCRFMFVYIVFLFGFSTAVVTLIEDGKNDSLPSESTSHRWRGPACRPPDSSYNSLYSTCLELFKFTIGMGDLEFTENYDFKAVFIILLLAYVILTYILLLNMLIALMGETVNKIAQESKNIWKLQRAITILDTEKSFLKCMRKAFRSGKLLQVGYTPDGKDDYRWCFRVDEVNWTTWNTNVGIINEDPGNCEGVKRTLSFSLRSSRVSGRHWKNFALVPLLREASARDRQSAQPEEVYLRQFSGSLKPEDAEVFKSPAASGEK
#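 TRPV1-expressing cells were cultured overnight at 35.5C and loaded with Fluo-8 calcium dye for 40 to 90 min at room temperature. After a 10 s baseline, compound was added and calcium influx was read kinetically for 3 min (ex 480/em 520 nm).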
# TRPML1 blocker = inhibitors of human TRPML1 channel; Q9GZU1; TRPML1-inducible cells, Ca2+ dye fluorescence, FDSS; active compounds read low; inhibition of EC80 agonist-evoked calcium signal; activity change, negative = inhibition, % (test concentration not listed); 0.02% of 390,000 active; AID 624415; in the data active means activity change below about -50%; inconclusive means about -30% to -50%; inactive means above about -30%;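 note: stimulus is agonist 54-4 at its EC80 concentration; % is set by controls: 0 for no effect and ±100 for the full control effect; compound concentration not given in the record; the text of the record puts the active cut at -80%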
#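 Calcium fluorescence in TRPML1-DL cells induced overnight with Tet: a 110 s read after compound pin addition, then a 110 s antagonist read after challenge with 54-4 at 4 uM final (EC80).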
# ClpP mod = qHTS Assay for Activators of ClpP; ATP-dependent Clp protease proteolytic subunit (Bacillus subtilis (strain 168)), P80244; purified B. subtilis ClpP, FRET peptide cleavage, 20 min; Potency, µM (titrated, usually from 57.5 µM), inactives show at the highest dose activity change, negative = active; 1.9% of 340,000 active; AID 651965, 2013; active = well fitted falling curve with a large enough effect; inconclusive = small, poorly fitted or top-dose-only effect; inactive = no such curve, though single readings can be large or run the other way; note: potency is the fitted concentration of half-maximal effect; the source files actives as falling curves though it sought activators and does not explain the sign; nearly all actives have a fitted effect of over 65% in size; many hits overshoot -100%
# Target sequence (P80244 whole entry, looked up): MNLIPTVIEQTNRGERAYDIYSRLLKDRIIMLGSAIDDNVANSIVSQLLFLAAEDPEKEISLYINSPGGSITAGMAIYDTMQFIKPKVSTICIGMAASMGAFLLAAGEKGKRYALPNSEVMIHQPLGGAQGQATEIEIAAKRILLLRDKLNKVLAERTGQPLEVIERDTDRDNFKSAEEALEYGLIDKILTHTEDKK
#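 Purified B. subtilis ClpP, 10 microg/mL final in Tris/HCl pH8 with KCl, BSA, glycerol and Tween-20, cleaved an Abz/nitrotyrosine-quenched decapeptide. Fluorescence (ex 320, em 430) was read at 0 and 20 min at room temperature. Delta was normalized to 5.8 microM ADEP and DMSO/no-enzyme controls.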
# * marks the source's active call; other numbers are inactive results; ? = inconclusive; / = no result given; [ ] = another dose, or the depositor's remark.
SMILES,gsp antag,Sfp PPTase inh,gsp agonist,Menin-MLL FL inh,TRPV1 PAM,TRPML1 blocker,ClpP mod
COC/C=C/C1=CC2=CC(=O)C(C)(OC(=O)c3cnc4ccccc4n3)C(=O)C2=CN1CC1CC1 (stereo not given),-12%,-1%,/,-2.9[11.7 µM],/,4,-0.6%
Cc1ccc2oc(=O)n(CC(=O)N3CCOCC3)c2c1,13%,28%,-3%,2.5,-12,88,1.5%
CC1CCCC(NC(=O)C2CCN(S(=O)(=O)c3cccc4nonc34)CC2)C1C (stereo not given),-4%,16%,3%[15.4 µM],9.9,-11,3,/
O=C(N/N=C/c1cc(Br)c(O)c(Br)c1)c1cccnc1,?,-19%,6%[15.4 µM],7.2,-8,39,0.2%
CNC(=O)C1=NCCCc2cc(OC)c(OC)cc21,10%,12%,21%,5.4,0,-1,-1.5%
O=C(NCC1CCCO1)c1nn2c(c1Cl)NC(c1ccc(F)cc1)CC2C(F)(F)F (stereo not given),-1%,12%,19%,-1.4,-6,5,0.2%
CNC(=O)c1ccccc1F,17%,4%,-1%,-0.4,11,-1,-1.3%
COc1ccccc1CNC(=O)CN1C(=O)NC(C)(c2ccc(C(C)(C)C)cc2)C1=O (stereo not given),-21%,7%,-23%,-1.9,-6,-8,/
CC(C)Oc1ccc2ccccc2c1C=O,-7%,-15%,18%,3.6,-27,2,27%
Cc1cc2nc(-c3ccc(SCC(=O)Nc4ccc(S(=O)(=O)NC5CC5)cc4)nc3)[nH]c2cc1C,-10%,6%,-68%[inhibitor],6.4,0,6,8.9µM*
COc1cc(C(=O)Nc2ccc(N(C)C)cc2)c([N+](=O)[O-])cc1OC,1%,13%,13%[15.4 µM],1.6,5,9,/
O=C(N/N=C/c1ccc2c(c1)OCO2)c1ccccn1,5%,79µM*,-3%,0.5,-26,5,-2.9%
CN1CCN(c2ccc(S(=O)(=O)N3CCCCC3)cc2[N+](=O)[O-])CC1,1%,6%,-7%[15.4 µM],-5.5,-1,-10,-1.1%
O=c1c2c([N+](=O)[O-])cc([N+](=O)[O-])cc2sn1-c1ccc(Br)cc1,-1%,8.9µM*,-22%,-3.1,-11,-12,-2.2%
Cc1cc(C)c2ccc(N)nc2c1O,1%,15%,-5%,0.3,4,-16,14%
CN1C(=S)SC(/[N+]([O-])=C/c2cccnc2)C1(C)C (stereo not given),11%,2%,13%,-3.1,1,36,0.5%
COC(=O)c1cn[nH]c1N,3%,16%,1%,2.9,-10,?,-0.7%
CCn1c(COc2ccc(Cl)cc2)nnc1SCC(=O)Nc1ccc2c(c1)OCO2,-5%,8%,-2%,-0.5,1,7,-1.2%
COc1ccc(/C=C/C(=O)OCC(=O)c2ccc(S(=O)(=O)N3CCCCC3)cc2)cc1OC,-5%,/,-10%[15.4 µM],/,-38,13,/
COc1cccc2c1OCC(CN1CCN(CCC(C)C)C(CCO)C1)=C2 (stereo not given),-36%,17%,-26%[15.4 µM],0.5,-7,-6,/
CC(NCCC1(C(C)C)CCOC(C)(C)C1)c1cccs1 (stereo not given),3%,21%,-12%,6.6,-7,41,-0.2%
O=C1CN(C(=O)COC(=O)c2cccc(OCc3ccccc3)c2)c2ccccc2N1,-6%,-3%,13%[15.4 µM],6.9,-9,33,0.9%
Nc1ccccc1-c1nnn(CC(=O)N2CCCc3ccccc32)n1,-7%,12%,-23%,0.4,-4,0,1.0%
CC1(C)C(=O)N(c2ccccc2Cl)C(=O)c2ccccc21,-8%,2%,-7%[15.4 µM],2.5,0,-13,/
COc1ccc2oc(C(=O)N3CCN(C(c4ccccc4)c4ccccc4)CC3)c(C)c2c1,-4%,/,-5%[15.4 µM],/,-4,-5,/
O=C(NNS(=O)(=O)c1ccc(F)cc1)c1ccc([N+](=O)[O-])cc1,-24%,-8%,17%[15.4 µM],-4.6,23,11,-7.8%
COc1ccc(NC(=O)CN(C)C2=NS(=O)(=O)c3ccccc32)cc1Cl,-14%,/,3%,/,/,3,/
COC(=O)c1ccc(NC(=O)c2cccc(OC)c2)cc1,0%,11%,5%,12,-10,5,-0.1%
COc1ccc(Br)cc1S(=O)(=O)Nc1ncccc1C,-7%,-12%,-44%[inhibitor],-2.8,?,-23,-21%
COc1ccc(OCC(=O)N2CCN(C(=O)c3ccccc3)CC2)cc1,2%[15.4 µM],4%,-33%[inhibitor],0.0,-19,2,-3.0%

# Reprinted from the part before: 3 entries; new compounds follow.
SMILES,gsp antag,Sfp PPTase inh,gsp agonist,Menin-MLL FL inh,TRPV1 PAM,TRPML1 blocker,ClpP mod
COC(=O)c1ccc(NC(=O)c2cccc(OC)c2)cc1,0%,11%,5%,12,-10,5,-0.1%
COc1ccc(Br)cc1S(=O)(=O)Nc1ncccc1C,-7%,-12%,-44%[inhibitor],-2.8,?,-23,-21%
COc1ccc(OCC(=O)N2CCN(C(=O)c3ccccc3)CC2)cc1,2%[15.4 µM],4%,-33%[inhibitor],0.0,-19,2,-3.0%
CCOC(=O)c1ccccc1NC(=O)CN(c1cccc(OC)c1)S(C)(=O)=O,-15%,-15%,22%,4.6,-14,-3,-6.9%
COCCCNC(=O)CN(c1ccc(F)cc1)S(=O)(=O)c1ccc2c(c1)OCCO2,3%,7%,4%[15.4 µM],-0.5,2,2,/
O=C(NCCCN1CCCC1=O)c1ccc(S(=O)(=O)Nc2ccccc2)cc1,9%,/,11%,/,-11,-6,-25%
NC(=O)C1CCN(C(=O)Cc2ccsc2)CC1,15%,6%,8%,/,8,5,-0.9%
Cc1cc(NC(=O)CSCC(=O)Nc2nc3ccccc3s2)no1,11%,/,?,/,6,18,-0.1%
COc1ccc(C(=O)Nc2ccc3c(c2)C(=O)NC3=O)cc1,1%,9%,12%,2.0,-16,-5,22%
C=CCN(CC=C)S(=O)(=O)c1ccc(C(=O)Nc2sc3c(c2C(N)=O)CCCCC3)cc1,0%,?,52%[15.4 µM],6.2,-16,-13,2.5%
Cc1cc(S(=O)(=O)N2CCCC(C(=O)Nc3ccc(C(=O)O)cc3)C2)ccc1Cl (stereo not given),-3%,8%,13%,-0.2,-8,1,/
O=C(COC(=O)CCNS(=O)(=O)c1cccc(C(F)(F)F)c1)NC(=O)NC1CCCCC1,?,16%,3%,-0.8,-1,14,0.9%
CCCCN(C(=O)C(C)N1C(=O)c2ccccc2C1=O)c1c(N)n(CCCC)c(=O)[nH]c1=O (stereo not given),-6%,/,22%,/,-10,-13,0.3%
O=C1N/C(=N\N=C\c2cccs2)SC1Cc1cccc(Cl)c1 (stereo not given),10%,-5%,-40%[inhibitor],0.7,1,7,1.5%
CC1CCCN(C(=O)CSc2n[nH]c(-c3cccs3)n2)C1 (stereo not given),-3%,/,5%[15.4 µM],/,?,13,/
O=C(Nc1ccc(F)c(F)c1)C1CCN(S(=O)(=O)c2cccs2)CC1,-14%,/,17%,/,-16,-14,-1.4%
CC(C)(C)OC(=O)C[C@@H]1C/C=C\C[C@@H](CC(=O)NCCO)C(=O)NC[C@@H](c2ccccc2)OC1=O,14%,/,?,/,/,15,2.2%
O=[N+]([O-])c1cnn(-c2nc(-c3ccco3)cc(C(F)(F)F)n2)c1,-9%,21%,-5%[15.4 µM],-0.3,-6,-6,/
Cc1nc2cc(C(=O)N3CCc4ccccc43)ccc2n1-c1ccc(F)c(F)c1,-5%,?,4%,14,-6,3,-2.8%
O=C(Nc1cccc(S(=O)(=O)N2CCCCC2)c1)c1c2c(nc3ccccc13)CCN(Cc1ccccc1)C2,2%,4%,20%,9.2,-7,15,-5.1%
COc1ccc(CNC(=O)Cc2cn(C)c3ccccc23)c(OC)c1,10%,-1%,-1%[15.4 µM],-3.7,?,1,-0.8%
C[C@@H]1CN([C@@H](C)CO)C(=O)c2cc(Br)cnc2O[C@H]1CN(C)C(=O)Nc1ccc(F)cc1,/,/,-29%,/,/,-11,0.0%
COCc1cc(C)nc(OCC(=O)N/N=C/c2cccc(OC)c2)c1C#N,-9%,2%,-6%,1.5,0,-4,28µM*
Cn1c(=O)c2c(nc(N3CCCCCC3)n2CC(O)COc2ccccc2)n(C)c1=O (stereo not given),-14%,-14%,-42%[inhibitor],1.1,/,-16,0.3%
Cc1ccnc(NC(=O)CSc2nnc3c(n2)[nH]c2ccccc23)c1,/,-2%,/,-0.5,8,/,/
CCN1C(=O)N/C(=C/c2ccc(Sc3ccc(C)cc3)o2)C1=O,?,?,7%,-0.4,-3,9,-4.8%
COc1cc(C(=S)N2CCN(C)CC2)ccc1OCC(=O)NCc1ccccc1,-9%,-1%,4%[15.4 µM],-4.0,3,-8,/
CN1CCN(C(=O)c2ccc(C3SCC(=O)N3Cc3ccco3)cc2)CC1 (stereo not given),3%,6%,19%,3.6,7,-1,0.4%
COC(=O)c1cn(Cc2ccccn2)c(=O)c2ccccc12,2%,18%,21%,-5.4,-1,-16,/
CS(=O)(=O)Nc1ccc(C2=NN(S(C)(=O)=O)C(c3ccccc3)C2)cc1 (stereo not given),1%,5%,-5%[15.4 µM],6.0,-1,-9,25%
O=C(COc1ccccc1)NCCc1cn2ccsc2n1,8%,4%,?,-0.4,18,7,-2.7%
Cc1ccnc(NC(=O)C2CCCN(S(=O)(=O)c3ccc4[nH]c(=O)ccc4c3)C2)c1 (stereo not given),-3%,19%,-3%,-0.3,-4,8,-8.7%
O=C(NCc1ccc2c(c1)OCO2)c1nc(S(=O)(=O)Cc2ccccc2)ncc1Cl,11%,?,-13%[15.4 µM],/,6,3,/

# An excerpt of these results, with values under each structure:
# Each structure is followed by: gsp antag	Sfp PPTase inh	gsp agonist	Menin-MLL FL inh	TRPV1 PAM	TRPML1 blocker	ClpP mod
- Cn1c(=O)c2c(nc(N3CCCCCC3)n2CC(O)COc2ccccc2)n(C)c1=O (stereo not given)
  -14%	-14%	-42%[inhibitor]	1.1	/	-16	0.3%
- Cc1ccnc(NC(=O)CSc2nnc3c(n2)[nH]c2ccccc23)c1
  /	-2%	/	-0.5	8	/	/
